Screens: PubChem BioAssay, National Center for Advancing Translational Sciences (NCATS)
TRPML1 blocker – qHTS for Inhibitors of the Human Mucolipin Transient Receptor Potential 1 (TRPML1); 390,000 compounds, 0.02% hits; activity change, negative = inhibition, % (test concentration not listed); TRPML1-inducible cells, Ca2+ dye fluorescence, FDSS; stronger effect = lower value; inhibition of EC80 agonist-evoked calcium signal; AID 624415, 2012; in the data active means activity change below about -50%; inconclusive means about -30% to -50%; inactive means above about -30%;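 note: stimulus is agonist 54-4 at its EC80 concentration; % is set by controls: 0 for no effect and ±100 for the full control effect; compound concentration not given in the record; the text of the record puts the active cut at -80%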
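Calcium fluorescence in TRPML1-DL cells induced overnight with Tet: a 110 s read after compound pin addition, then a 110 s antagonist read after challenge with 54-4 at 4 uM final (EC80).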
Sfp PPTase inh – qHTS Assay for Inhibitors of Bacillus subtilis Sfp phosphopantetheinyl transferase (PPTase) | Biochemical Sfp PPTase activity, qHTS | Potency, µM, for the others: max response, negative = inhibition, most hits filed as inhibitors | AID 1490, 2009 | 310,000 compounds, 3.5% hits | 4'-phosphopantetheinyl transferase ffp (Bacillus subtilis), Q9F4F7; active = well fitted inhibition curve with a large enough effect; inconclusive = small, poorly fitted or top-dose-only effect, or another doubt; inactive = no such curve, though single readings can be large or run the other way;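 note: the enzyme is Sfp with the accession as filed and its product quenches rhodamine fluorescence; potency is the fitted concentration of half-maximal effect; 0% = enzyme reaction without inhibitor and -100% = no enzyme wells; top concentration of the series not given in the record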
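Fluorescence-quenching assay with 15 nM Sfp, 5 uM rhodamine-CoA and 12.5 uM BHQ-2-labelled ybbR peptide in pH 7.6 Hepes/MgCl2 buffer. Enzyme was pre-incubated with compound for 15 min at room temperature. Rate was taken from the 30-min fluorescence change (525/598 nm).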
gsp ag – qHTS for Agonist of gsp, the Etiologic Mutation Responsible for Fibrous Dysplasia/McCune-Albright Syndrome: qHTS; Potency, µM (top dose mostly 76.9 µM), without a hit: at the top dose activation (cAMP increase), usual class: activators; gsp mutant cells, cAMP HTRF, 30 min; control for the full effect not named in the record; 340,000 compounds, 0.13% hits; active = well fitted activation curve with a large enough effect; inconclusive = small, poorly fitted or top-dose-only effect, or another doubt; inactive = no such curve, though single readings can be large or run the other way; cell line not stated here;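 note: phosphodiesterase inhibitor Ro 20-1724 added with compounds to block cAMP breakdown; potency is the fitted concentration of half-maximal effect; nearly all actives have a fitted effect of over 60% in size; about a fifth of the inactives were tested at one dose only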
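Cells in DMEM/10% FBS with G418 were pretreated with compounds in DMSO plus […] (300 uM stock) for 30 min at 37C. cAMP was measured by HTRF (cAMP-d2 plus anti-cAMP antibody-K) after 30 min at room temperature.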
TRPV1 potentiator – HTS Assay for Compounds that Act as Potentiators of the Vanilloid Receptor 1 | Transient receptor potential cation channel subfamily V member 1 (Homo sapiens), Q8NER1 | TRPV1-expressing cells, Fluo-8 calcium influx, capsaicin EC20 potentiation; host cell line not named in the record; control for the full effect not named in the record | potentiation, % at 8.33 µM | 320,000 compounds, 0.02% hits; active means potentiation above 80%; inconclusive means 30% to 80%; inactive means below 30%; note: 0% is about no effect
Target sequence (Q8NER1 whole entry, looked up): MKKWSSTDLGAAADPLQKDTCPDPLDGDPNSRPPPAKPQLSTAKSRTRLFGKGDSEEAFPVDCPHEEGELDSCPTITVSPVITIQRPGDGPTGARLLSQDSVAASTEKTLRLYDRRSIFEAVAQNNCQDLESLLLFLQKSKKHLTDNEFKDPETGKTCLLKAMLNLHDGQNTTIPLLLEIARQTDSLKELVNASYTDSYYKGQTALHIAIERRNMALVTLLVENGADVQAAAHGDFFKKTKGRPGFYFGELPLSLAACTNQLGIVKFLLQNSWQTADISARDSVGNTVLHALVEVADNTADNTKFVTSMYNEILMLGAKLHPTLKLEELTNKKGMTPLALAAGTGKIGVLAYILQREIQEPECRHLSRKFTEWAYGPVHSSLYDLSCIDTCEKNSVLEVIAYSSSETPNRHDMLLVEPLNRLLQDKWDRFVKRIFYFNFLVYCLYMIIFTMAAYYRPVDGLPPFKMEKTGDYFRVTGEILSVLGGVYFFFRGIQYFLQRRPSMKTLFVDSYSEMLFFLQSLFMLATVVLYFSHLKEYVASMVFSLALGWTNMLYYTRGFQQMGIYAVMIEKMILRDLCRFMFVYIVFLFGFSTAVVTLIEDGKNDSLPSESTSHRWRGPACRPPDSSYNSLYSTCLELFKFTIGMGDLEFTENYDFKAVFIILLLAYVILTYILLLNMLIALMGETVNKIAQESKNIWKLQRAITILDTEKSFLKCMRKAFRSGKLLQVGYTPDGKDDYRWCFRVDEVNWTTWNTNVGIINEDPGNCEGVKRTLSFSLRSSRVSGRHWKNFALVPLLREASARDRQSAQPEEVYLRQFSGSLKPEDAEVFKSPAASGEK
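Fluo-8 calcium influx in TRPV1-expressing cells, kinetic read (ex 480/em 520 nm). Compound added and read 3 min for agonist activity, followed by capsaicin at EC20 final and 2 min further read for enhancement.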
Menin-MLL FL inh – qHTS Assay for Inhibitors Targeting the Menin-MLL Interaction in MLL Related Leukemias: Competition With Fluorescein Labeled MLL-derived Peptide | Fluorescence polarization, fluorescein-MLL peptide displacement from menin | FP activity change, % at 61.4 µM | 290,000 tested, under 10 active | AID 1766, 2009; inconclusive = falling polarisation curve, or a change in total fluorescence; inactive = total fluorescence flat and polarisation flat or rising; no compound was filed as active; the % refers to the polarisation; negative = inhibition;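 note: % of control where 0% means no effect; inhibitors lower the polarisation; unlabelled MLL peptide was the positive control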
gsp antag – qHTS for Antagonists of gsp, the Etiologic Mutation Responsible for Fibrous Dysplasia/McCune-Albright Syndrome: qHTS; gsp-mutant cells, cAMP HTRF, 30 min; control for the full effect not named in the record; Potency, µM (titrated, usually from 76.9 µM), for inactives: at the highest dose activity change, negative = inhibition, most hits filed as inhibitors; 340,000 compounds, 0.4% hits; AID 624288, 2012; active = falling curve of any shape with a large fitted effect; inconclusive = falling curve, mostly with a smaller effect; inactive = flat or rising curve; cell line not stated here;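 note: intracellular cAMP measured with PDE inhibitor Ro 20-1724 present during compound exposure; potency is the fitted concentration of half-maximal effect; % is set by controls: 0 for no effect and ±100 for the full control effect; nearly all actives have a fitted effect of over 65% in size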
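HTRF cAMP read-out (cAMP-d2 plus anti-cAMP antibody-K in lysis buffer, 30 min RT). Before lysis, cells are exposed to compounds with […] for 30 min at 37C in DPBS containing Ca/Mg, BSA and Tween 20.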
ClpP mod – qHTS Assay for Activators of ClpP | purified B. subtilis ClpP, FRET peptide cleavage, 20 min | 340,000 compounds, 1.9% hits | ATP-dependent Clp protease proteolytic subunit (Bacillus subtilis (strain 168)), P80244 | Potency, µM (highest dose often 57.5 µM), without a hit: at the highest dose activity change, negative = active; active = well fitted falling curve with a large enough effect; inconclusive = small, poorly fitted or top-dose-only effect; inactive = no such curve, though single readings can be large or run the other way; note: potency is the fitted concentration of half-maximal effect; the source files actives as falling curves though it sought activators and does not explain the sign; nearly all actives have a fitted effect of over 65% in size; many hits overshoot -100%
Target sequence (P80244 whole entry, looked up): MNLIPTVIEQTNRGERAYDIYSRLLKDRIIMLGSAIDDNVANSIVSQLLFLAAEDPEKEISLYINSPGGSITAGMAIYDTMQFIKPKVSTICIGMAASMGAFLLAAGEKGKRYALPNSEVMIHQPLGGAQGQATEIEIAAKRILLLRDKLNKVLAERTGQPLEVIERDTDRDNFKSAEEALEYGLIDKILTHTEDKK
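Buffer: 100 mM Tris/HCl pH8, 100 mM KCl, 0.05% low protease BSA, 2.5% glycerol, 0.01% Tween-20. ClpP 10 microg/mL final; 20 min RT; delta FRET normalized to ADEP and DMSO controls.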
The depositor's hits bear a star; ? = inconclusive; . = no result given; & = joins results of further samples; [ ] = dose if it differs, or a comment.

Values in the order – ClpP mod | Menin-MLL FL inh | gsp antag | gsp ag | TRPML1 blocker | Sfp PPTase inh | TRPV1 potentiator
- C[C@@H](O)C1NC(=O)[C@H](CCCCN)NC(=O)c2cc([N+](=O)[O-])cc(I)c2NCCC[C@@H](C(N)=O)NC1=O (stereo not given in full)
    0.8% | 4.0 | 10% | . | 15 | -16% | -4
- O=C(COC(=O)C12CC3CC(CC(O)(C3)C1)C2)Nc1ccc(Cl)cc1F
    1.3% | . | -6% | -41%[inhibitor] | 0 | . | 2
- C=CCn1c(SCC(=O)Nc2cc(C)on2)nc2sc(C)c(C)c2c1=O
    1.0% | 3.4 | 1% | -25% | -13 | -30% | -5
- N#Cc1c(Nc2ccccc2)c(/C=N/N=C/c2ccccc2)c[nH]c1=O
    1.5% | 6.6 | ? | 1%[15.4 µM] | -7 | ? | -1
- COc1ccc(OCCCc2c(C)n[nH]c2C)cc1
    -0.2% | 0.8 | ? | 7% | -9 | -13% | 2
- N=c1sccn1CC(=O)Nc1cc(S(=O)(=O)N2CCCCC2)ccc1Cl
    . | -1.6 | 0% | 21%[15.4 µM] | -13 | 4% | 24
- COc1ccc(S(=O)(=O)N2CCCC2C(=O)Nn2cnnc2)cc1 (stereo not given)
    -0.9% | -1.3 | 2% | 0% | 0 | 8% | 0
- COc1ccc(CN(C)C(C)C(=O)Nc2ccc([N+](=O)[O-])cc2Cl)cc1OC (stereo not given)
    1.7% | 7.8 | ? | -19% | 5 | -7% | -3
- COCCNC(=O)c1ccc(N2CCCCC2)c(NS(=O)(=O)c2ccc(C)cc2)c1
    -18% | -4.2 | -1% | -18% | -11 | ? | 9
- C#Cc1ccc([C@H]2C=C(C(=O)NCc3ccccc3)O[C@@H](OCC)[C@@H]2CCCO)cc1
    0.3% | -3.9 | ? | . | 13 | -10% | ?
- NNc1ccc(Cc2ccc(Cl)cc2Cl)nn1
    . | 4.5 | 12% | -13% | -3 | 6% | 5
- CCOC(=O)c1nc(C)sc1-c1ccnn1S(=O)(=O)c1ccccc1C(F)(F)F
    . | 11 | -13% | 16%[15.4 µM] | 17 | 50µM* | -5
- CCC(=O)NC(=S)Nc1ccc(NC(=O)c2ccc(Br)o2)cc1
    2.6% | -2.0 | 14% | 9% | 2 | 17% | -22
- COc1ccc(S(=O)(=O)Nc2cccc3c2O[C@H](CN(C)S(=O)(=O)c2cn(C)cn2)[C@@H](C)CN([C@H](C)CO)C3=O)cc1
    -3.0% | . | 8% | -19% | 5 | . | .
- COc1ccc(-c2cc(=O)n(-c3ccc([N+](=O)[O-])cc3)[nH]2)cc1
    28µM* | 2.2 | -19% | -7% | 2 | -12% | 6
- O=C(NC1CCN(Cc2ccccc2)CC1)C1CCN(S(=O)(=O)c2cccc3nsnc23)CC1
    -0.8% | 7.3 | 2% | ? | 5 | 1% | -7
- COC(=O)Cc1c(C)nc2nc(NCc3c(F)cccc3Cl)[nH]n2c1=O
    -3.1% | 1.1 | -5% | -8% | 11 | -3% | -9
- N#CC(Cc1ccccc1OC(F)F)c1nc2ccccc2[nH]1 (stereo not given)
    -1.0% | 3.5 | 13% | -3%[15.4 µM] | 8 | 1% | -19
- Cc1c(Cl)cccc1NC(=O)C1CC(=O)N(C2CCCC2)C1 (stereo not given)
    . | . | 11% | 2%[15.4 µM] | 39 | . | .
- Nc1c(Cl)ncnc1NCCc1ccc(O)cc1
    1.2% | 0.0 | -12% | 7% | . | 13% | -4

Next part.
Values in the order – ClpP mod | Menin-MLL FL inh | gsp antag | gsp ag | TRPML1 blocker | Sfp PPTase inh | TRPV1 potentiator
- COc1cc(/C=C(\C#N)c2nc3ccccc3[nH]2)cc(Br)c1OCc1ccccc1
    -0.5% | 9.3 | 2% | -6%[15.4 µM] | 6 | 1% | 3
- Cc1cccc(C(=O)O/N=C(\N)Cc2ccc([N+](=O)[O-])cc2)c1
    0.1% | 0.7 | -1% | ? | 6 | -11% | -4
- Cc1ccc(-c2cc(C#N)c(=O)n(Cc3c(Cl)cccc3Cl)c2)cc1
    7.1µM* | 0.3 | 52%[activator] | ? | 7 | 0% | 1
- CCC(=O)N(CC)c1nc(-c2ccc(OC)cc2)cs1
    0.1% | 0.5 | 3% | ? | 0 | ? | -5
- COc1ccc([N+](=O)[O-])cc1NC(=O)C(C)Sc1ccccc1 (stereo not given)
    1.1% | -0.9 | -9% | -28% | -9 | 1% | -10
- COc1ccc(C=O)c2[nH]c3c(Cl)ncnc3c12
    3.4% | 4.6 | 6% | ? | -14 | 5% | 8
- O=C(NC1CCCC1)C(c1ccc(O)cc1)N(CC1CCCO1)C(=O)C1COc2ccccc2O1 (stereo not given)
    -2.9% | 2.2 | 3% | 13% | -2 | 11% | -11
- CCCOc1ccccc1C(=O)N1CCCCC1CCN1CCCCC1 (stereo not given)
    -1.1% | . | . | . | -15 | . | 28
- Cc1ccc(S(=O)(=O)Nc2cc(C)on2)cc1
    . | -8.5 | 3% | 6%[15.4 µM] | 9 | -3% | -9
- O=C(c1ccccc1)c1ccc2c(c1)OCCOCCOCCOCCO2
    -0.6% | 2.3 | -8% | -2% | 10 | 13% | 12
- CC(=O)c1ccc(NC(=O)CC(C)S(=O)(=O)c2ccc3c(c2)CCN3C(C)=O)cc1 (stereo not given)
    -0.4% | . | -3% | 13% | 0 | 14% | 24
- Cc1ccc(NC2CCCN(C(=O)CCc3ccncc3)C2)cc1C (stereo not given)
    -0.4% | . | -1% | -39%[inhibitor] | 10 | 6% | -13
- CNC(=O)c1ccc(S(=O)(=O)c2ccc(Cl)cc2)c(NC(C)=O)c1
    -1.4% | -0.3 | 11% | 32% | -3 | 9% | 7
- Cc1ccc2oc(=O)n(CCOc3ccccc3Cl)c2c1
    -0.5% | -1.0 | -6% | -6% | -3 | 6% | -3
- COc1ccc(/C(O)=C2/C(=O)C(=O)N(CCN(C)C)C2c2ccccc2)cc1Cl (stereo not given)
    1.2% | 1.4 | 10% | 15% | -6 | 2% | 14
- O=C(COC(=O)c1ccc(=O)n(Cc2ccccc2)n1)Nc1ccc2c(c1)OCCO2
    -0.8% | -1.4 | -17% | ? | 13 | 6% | 5
- COc1ccc(NC(=O)CSc2nccn2-c2cccc(OC)c2)cc1
    -2.5% | -1.4 | 5% | 2% | -9 | -3% | -17
- CN(C)CCCOc1cccc(Oc2ccccc2)c1
    1.1% | 6.2 | 20% | -1% | 0 | -47% | 1
- CN(CCC#N)C(=O)COC(=O)c1c2c(nc3ccccc13)/C(=C\c1ccco1)CC2
    . | . | -11% | ? | -1 | . | .
- CC(C)C(NC(=O)c1ccco1)C(=O)OCC(=O)NCCc1ccccc1 (stereo not given)
    -1.8% | . | -6% | -1% | -1 | . | 2

A few values from above:
CCCOc1ccccc1C(=O)N1CCCCC1CCN1CCCCC1 (stereo not given) – TRPV1 potentiator = 28
COc1ccc(/C(O)=C2/C(=O)C(=O)N(CCN(C)C)C2c2ccccc2)cc1Cl (stereo not given) – gsp antag = 10%

Back to the main list, starting 3 compounds before the break.
Values in the order – ClpP mod | Menin-MLL FL inh | gsp antag | gsp ag | TRPML1 blocker | Sfp PPTase inh | TRPV1 potentiator
- CN(C)CCCOc1cccc(Oc2ccccc2)c1
    1.1% | 6.2 | 20% | -1% | 0 | -47% | 1
- CN(CCC#N)C(=O)COC(=O)c1c2c(nc3ccccc13)/C(=C\c1ccco1)CC2
    . | . | -11% | ? | -1 | . | .
- CC(C)C(NC(=O)c1ccco1)C(=O)OCC(=O)NCCc1ccccc1 (stereo not given)
    -1.8% | . | -6% | -1% | -1 | . | 2
- Cc1ccc(CNC(=O)C(=O)NCC2CCCN2S(=O)(=O)c2cc(C)ccc2C)cc1 (stereo not given)
    . | . | 0% | 28%[15.4 µM] | -3 | . | -17
- CCN1CCc2c(C#N)c(N3CCOCC3)nc(NCCO)c2C1
    8.9µM* | 0.9 | 15% | -7% | -13 | 12% | -2
- CCCc1nc2ccccc2c(=O)n1CC(=O)c1ccc(F)cc1
    -0.4% | 2.8 | -2% | -9% | -6 | -6% | 24
- COC(=O)c1sc2ncccc2c1OCc1ccccc1Cl
    ? | 2.9 | -23% | -39%[inhibitor] | 23 | -4% | 10
- CCOC(=O)c1c(S(=O)(=O)NCC(=O)NCc2cccc(C)c2)c(C)n(C)c1C
    1.6%&-0.5% | -0.4 | -6% | ? | 1&-18 | 4% | 14
- O=C(c1ccco1)N(Cc1ccccc1)c1cccc([N+](=O)[O-])c1
    . | 2.2 | -3% | -4%[15.4 µM] | 0 | 0% | 18
- O=C(Cc1cccs1)NNC(=S)NCc1ccco1
    . | 0.0 | 2% | -21% | 9 | 7% | 3
- Cc1csc(SCC(=O)N(C)CC(=O)Nc2ccc(F)cc2)n1
    . | 0.6 | . | . | . | 21% | 1
- Cn1nc(C(=O)Nc2ccccc2N2CCOCC2)ccc1=O
    0.2% | . | -2% | -44%[inhibitor] | -15 | . | 7
- COC(=O)c1ccc2c(=O)n(CCCCCC(=O)NC(C)C)c(=O)[nH]c2c1
    -2.0%&-12% | 4.0 | -1% | -3%[15.4 µM] | 1&22 | 17% | 7
- O=c1c2c(nc3cc(-c4ccccc4)[nH]n13)CCS2
    10µM* | 0.8 | 1% | 1% | 8 | 1% | -12
- FC(F)(F)c1ccccc1/C=N/n1c(COc2ccccc2)n[nH]c1=S
    . | -2.8 | ? | 0% | -10 | 50µM* | -1

Hits appear at their usual frequency; 4.9% or so of the library scored in one or more.
